Menin-MLL FL inh = qHTS Assay for Inhibitors Targeting the Menin-MLL Interaction in MLL Related Leukemias: Competition With Fluorescein Labeled MLL-derived Peptide; Fluorescence polarization, fluorescein-MLL peptide displacement from menin; FP activity change, % at 61.4 µM; 290,000 tested, under 10 active; AID 1766, 2009; inconclusive = falling polarisation curve, or a change in total fluorescence; inactive = total fluorescence flat and polarisation flat or rising; no compound was filed as active; the % refers to the polarisation; negative = inhibition;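 further: % of control where 0% means no effect; inhibitors lower the polarisation; unlabelled MLL peptide was the positive control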
PINK1 expr mod = A Quantitative High throughput Screen to Identify Chemical Modulators of PINK1 Expression | PINK1 immunofluorescence, high-content cytometry, 24 h | Potency, µM (top dose mostly 76.6 µM), for inactives: top-dose activation (PINK1 increase), actives largely listed as activators | hit rate 0.2% among 410,000 | AID 624263, 2012; active = well fitted activation curve with a large enough effect; inconclusive = small, poorly fitted or top-dose-only effect; inactive = flat fitted curve, though single readings scatter; cell line not stated here;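 further: potency means the concentration at half of the fitted maximal effect; % of control where 0% means no effect; nearly all actives have a fitted effect of over 65% in size; a mitochondrial uncoupler was the plate control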
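Stable cell line treated 24 h with compounds at 5 concentrations (CCCP controls), then fixed and immunostained for PINK1 plus nuclear and cell stains; PINK1 immunofluorescence quantified by laser-scanning microplate cytometry.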
gsp ag = qHTS for Agonist of gsp, the Etiologic Mutation Responsible for Fibrous Dysplasia/McCune-Albright Syndrome: qHTS; AID 624287, 2012; gsp mutant cells, cAMP HTRF, 30 min; control for the full effect not named in the record; Potency, µM (doses to about 76.9 µM), inactives show at the highest dose activation (cAMP increase), usual class: activators; hit rate 0.13% among 340,000; active = well fitted activation curve with a large enough effect; inconclusive = small, poorly fitted or top-dose-only effect, or another doubt; inactive = no such curve, though single readings can be large or run the other way; cell line not stated here;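 further: phosphodiesterase inhibitor Ro 20-1724 added with compounds to block cAMP breakdown; potency means the concentration at half of the fitted maximal effect; nearly all actives have a fitted effect of over 60% in size; about a fifth of the inactives were tested at one dose only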
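Cells stably selected in G418 were plated at 2000/well, grown 16-24 hr, then given compounds in DMSO with the PDE inhibitor […] (300 uM solution added) for 30 min at 37C; cAMP was read by HTRF.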
ClpP mod = qHTS Assay for Activators of ClpP | ATP-dependent Clp protease proteolytic subunit (Bacillus subtilis (strain 168)), P80244 | purified B. subtilis ClpP, FRET peptide cleavage, 20 min | Potency, µM (doses to about 57.5 µM), for the others: top-dose activity change, negative = active | hit rate 1.9% among 340,000 | AID 651965, 2013; active = well fitted falling curve with a large enough effect; inconclusive = small, poorly fitted or top-dose-only effect; inactive = no such curve, though single readings can be large or run the other way; further: potency means the concentration at half of the fitted maximal effect; the source files actives as falling curves though it sought activators and does not explain the sign; nearly all actives have a fitted effect of over 65% in size; many hits overshoot -100%
Target sequence (P80244 whole entry, looked up): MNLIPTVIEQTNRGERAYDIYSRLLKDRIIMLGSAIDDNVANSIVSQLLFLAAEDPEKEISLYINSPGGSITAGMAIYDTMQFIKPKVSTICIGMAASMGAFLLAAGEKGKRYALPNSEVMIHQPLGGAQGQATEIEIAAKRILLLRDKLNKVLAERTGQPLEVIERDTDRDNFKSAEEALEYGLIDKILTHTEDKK
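Purified B. subtilis ClpP, 10 microg/mL final in Tris/HCl pH8 with KCl, BSA, glycerol and Tween-20, cleaved an Abz/nitrotyrosine-quenched decapeptide. Fluorescence (ex 320, em 430) was read at 0 and 20 min at room temperature. Delta was normalized to 5.8 microM ADEP and DMSO/no-enzyme controls.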
gsp antag = qHTS for Antagonists of gsp, the Etiologic Mutation Responsible for Fibrous Dysplasia/McCune-Albright Syndrome: qHTS. gsp-mutant cells, cAMP HTRF, 30 min; control for the full effect not named in the record. Potency, µM (series often up to 76.9 µM), without a hit: top-dose activity change, negative = inhibition, usual class: inhibitors. hit rate 0.4% among 340,000. AID 624288, 2012; active = falling curve of any shape with a large fitted effect; inconclusive = falling curve, mostly with a smaller effect; inactive = flat or rising curve; cell line not stated here;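 further: intracellular cAMP measured with PDE inhibitor Ro 20-1724 present during compound exposure; potency means the concentration at half of the fitted maximal effect; on the % scale 0 is the no-effect control and ±100 the full control effect; nearly all actives have a fitted effect of over 65% in size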
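Cells in G418 medium, seeded 16-24 h, 37C; buffer exchange to DPBS + 1 mM CaCl2, 0.5 mM MgCl2, 0.05% BSA; cpds in DMSO + […] (300 uM stock), 30 min 37C; HTRF cAMP detection.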
Sfp PPTase inh = qHTS Assay for Inhibitors of Bacillus subtilis Sfp phosphopantetheinyl transferase (PPTase). 4'-phosphopantetheinyl transferase ffp (Bacillus subtilis), Q9F4F7. Biochemical Sfp PPTase activity, qHTS. Potency, µM, for the others: max response, negative = inhibition, actives largely listed as inhibitors. hit rate 3.5% among 310,000. AID 1490, 2009; active means well fitted inhibition curve with a large enough effect; inconclusive means small, poorly fitted or top-dose-only effect, or another doubt; inactive means no such curve, though single readings can be large or run the other way;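 further: the enzyme is Sfp with the accession as filed and its product quenches rhodamine fluorescence; potency means the concentration at half of the fitted maximal effect; 0% = enzyme reaction without inhibitor and -100% = no enzyme wells; top concentration of the series not given in the record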
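Fluorescence-quenching assay: 15 nM Sfp-PPTase preincubated 15 min at room temperature with compound, then 5 uM rhodamine-CoA and 12.5 uM BHQ-2-labelled YbbR peptide added. Fluorescence (ex 525/em 598 nm) read at start and after 30 min; difference gives rate.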
D2 agonist = Beta-Arrestin HTS for Positive Allosteric Modulators of the Human D2 Dopamine Receptor: Agonists | DiscoveRx PathHunter D2 beta-arrestin, luminescence, 90 min; 100% = 57 uM dopamine signal | hit rate 0.084% among 360,000 | activation, % (concentration not given with the values) | AID 624465, 2012 | D(2) dopamine receptor (Homo sapiens), P14416; in the data active = activation above about 40%; inconclusive = about 15% to 40%; inactive = below about 15%; further: compound concentration not given in the record; the text of the record calls up to 30% inactive
Target sequence (P14416 whole entry, looked up): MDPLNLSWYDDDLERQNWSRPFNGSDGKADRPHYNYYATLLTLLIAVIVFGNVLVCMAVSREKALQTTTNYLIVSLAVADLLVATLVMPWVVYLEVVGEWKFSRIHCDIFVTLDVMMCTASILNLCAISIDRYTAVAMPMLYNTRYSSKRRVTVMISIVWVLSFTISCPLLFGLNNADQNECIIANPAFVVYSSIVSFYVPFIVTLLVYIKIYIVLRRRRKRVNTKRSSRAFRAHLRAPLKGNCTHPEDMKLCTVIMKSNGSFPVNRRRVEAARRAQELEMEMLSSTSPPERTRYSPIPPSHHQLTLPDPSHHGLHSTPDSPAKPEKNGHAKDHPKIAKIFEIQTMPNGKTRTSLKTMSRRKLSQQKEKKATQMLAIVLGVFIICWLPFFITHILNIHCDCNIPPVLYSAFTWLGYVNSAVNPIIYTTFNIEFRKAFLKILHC
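DiscoveRx PathHunter D2 beta-arrestin cells (2,100/well) attached overnight, then compound-stimulated 90 min at 37 C in HBSS/10 mM HEPES/0.1% Tween-20 buffer; beta-galactosidase complementation read by luminescence after 1 h at ambient temperature. Dopamine 57 uM final (EC100) as control.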
* = called active by the depositor; ? = inconclusive; . = no result given; [ ] = remark or other dose.

SMILES | Menin-MLL FL inh | PINK1 expr mod | gsp ag | ClpP mod | gsp antag | Sfp PPTase inh | D2 agonist
CN(C)CCCn1cnc2c(c1=N)C(c1ccccc1)c1ccc3ccccc3c1O2 (stereo not drawn) | -5.6 | -1.5% | -49% | -1.8% | 1% | -15% | 0.3
CCC(=O)Nc1nc2ccc(NC(=O)c3cc(OC)c(OC)c(OC)c3)cc2s1 | -2.6 | 2.9% | -14%[15.4 µM] | -2.4% | 2% | 25% | -1.1
CCC(C)n1cnc2c(c1=O)c1nc3ccccc3nc1n2-c1ccc2c(c1)OCCO2 (stereo not drawn) | 8.1 | ? | 2% | -1.6% | -7% | 18% | -0.2
CC(OC(=O)Cn1c(C(F)(F)F)nc2ccccc21)C(N)=O (stereo not drawn) | -1.8 | 1.1% | 7% | -1.1% | 1% | 12% | -1.6
O=C(Nc1cccc2ccccc12)/C(Cl)=C/c1ccccc1 | -0.7 | 4.9% | ? | -1.3% | -12% | -3% | -3.3
O=C(Nc1ccc(Br)cc1)c1ccc(CSC2=NCCS2)cc1 | -1.4 | 9.1% | 21% | 0.0% | 4% | 14% | 1.5
CCCNC(=O)C1(C)CCCN(C(=O)Cc2ccc(OC)c(OC)c2)C1 (stereo not drawn) | . | -0.1% | . | -1.2% | . | . | -4.0
N#CC1(Nc2cccc(Br)c2)C(=O)Nc2ccccc21 (stereo not drawn) | 4.2 | 3.3% | 21%[15.4 µM] | -0.5% | -9% | -3% | -21
COc1ccc(OCCSc2nnc3c(Cl)cc(Cl)cn23)cc1 | 5.1 | 0.9% | -16% | 1.2% | -8% | 3% | 3.3
O=C(CSc1nnc(CNC(=O)c2cccs2)o1)Nc1cccc(F)c1 | . | -0.5% | -6% | 0.2% | 4% | 5% | -1.9
Cc1cc(Cl)cc2sc(NC(=O)c3ccco3)nc12 | -1.3 | 5.4% | -34%[inhibitor] | 3.7% | -1% | 8% | 0.1
COc1ccccc1N1CCN(Cc2ccc(-c3ccccc3[N+](=O)[O-])o2)CC1 | 1.2 | 2.1% | -11% | -3.9% | -22% | ? | -0.7
COc1cc(N=c2oc3c(C)ncc(CO)c3cc2C(N)=O)cc(OC)c1OC | 0.5 | 2.5% | -9%[15.4 µM] | . | 1% | 16% | -16
CC(=O)NCCc1ccc(C(=O)COC(=O)c2ccco2)cc1 | . | -2.5% | -5% | ? | 5% | . | 1.7
CCCCN(C1CCS(=O)(=O)C1)S(=O)(=O)c1ccc(OC)cc1 (stereo not drawn) | . | -2.6% | -11%[15.4 µM] | . | 11% | . | -2.4
O=C(CSc1ccc(Cl)cc1)N1CCC(c2nc3ccccc3s2)CC1 | -3.6 | 1.1% | -18% | -6.2% | 32µM* | -4% | 1.2
NC(=S)Cc1nc2n(n1)Cc1ccccc1-2 | 2.1 | 6.6%[38.3 µM] | -6% | -1.9% | 7% | 56µM* | -1.0
CCN1C(=O)/C(=C\C=C2/C=CC=CN2CC)SC1=S | ? | 4.9% | -6% | ? | ? | ? | -4.5
CCOC(=O)N1CCN(C(=O)c2ccc(S(=O)(=O)Nc3cccc(C(F)(F)F)c3)cc2)CC1 | . | 2.6% | -7%[15.4 µM] | . | ? | . | 3.4
COc1ccc(S(=O)(=O)N(C)CC(=O)NC2CC2)cc1OC | -5.1 | 0.9% | 2% | -0.9% | 3% | 2% | 0.2
O=C(CN1C(=O)NC2(CCCC2)C1=O)OCc1c(F)cccc1Cl | . | -2.4% | -10%[15.4 µM] | . | 12% | . | -3.9
Cc1ccccc1-n1c(=O)c2ccccc2n(CC(=O)NCc2ccco2)c1=O | 2.0 | -0.6% | 2% | -7.8% | 1% | 4% | -2.7
CCO[C@@H]1OC(C(=O)NC2CC2)=C[C@H](c2ccc(C(F)(F)F)cc2)[C@H]1CCCO | 2.9 | -1.5% | . | -3.1% | 1% | 10% | 0.3
O=C1N=C(N2CCCCC2)S/C1=C\c1ccncc1 | 0.1 | 0.9% | 11%[15.4 µM] | 0.3% | -17% | 11% | 4.2
CCOC(=O)c1cc2ccc(OC)c(OC)c2c(=O)s1 | 1.1 | 1.2% | 2% | -3.6% | 2% | 19% | -2.9
COCCN1CCn2c(nc3cc(NS(C)(=O)=O)ccc32)C1 | 3.4 | 2.6% | -4%[15.4 µM] | 0.5% | 5% | 12% | 3.0
O=C(O)c1ccc2nc(-c3ccco3)c(-c3ccco3)nc2c1 | -17 | -1.6% | 3.5µM* | . | -22% | 7.9µM* | 11
CSc1ccc(C(=O)C2CCCN(S(=O)(=O)c3c(C)noc3C)C2)cc1 (stereo not drawn) | -4.7 | -0.4% | -1% | -2.3% | -28% | 19% | 5.3
N#CC(=Cc1ccnc2ccccc12)c1ccccc1 | . | 4.1% | -23% | 4.2% | . | . | -3.9
Cc1ccc(-n2c(SCC(=O)N3c4ccccc4Sc4ccccc43)nnc2-c2ccncc2)cc1 | 0.9 | 0.5% | -36% | 0.4% | 1% | 9% | 4.5
O=C(COc1ccc(Cl)cc1)NCc1nnc(SCC(=O)c2ccccc2)o1 | 8.9 | 0.0% | -22% | -0.5% | -7% | ? | -1.5
COC(=O)C1=C(C(=O)OC)[C@@H]2Nc3ccccc3[C@@]23C[C@@H](C(=O)OC)N(C(=O)c2ccco2)C3=N1 | 0.0[11.7 µM] | 3.0% | . | 0.6% | -5% | -15% | 2.4
O=C(COc1ccc(Cl)cc1Br)Nc1ccccc1N1CCCC1 | . | 21% | 6% | -2.7% | -18% | . | -8.9
O=C(CN1CCN(C(=O)CNC(=O)c2ccc(N3CCCC3=O)cc2)CC1)Nc1ccccc1Cl | . | -1.1% | 11% | -2.6% | -3% | . | 0.5
Cc1cc(C)nc(SCc2ccc(C(=O)N/N=C/c3ccncc3)cc2)n1 | 2.1 | -1.3% | 31% | . | -1% | 12% | 3.2
COc1ccccc1C(=O)NCC(c1cccs1)N1CCc2ccccc21 (stereo not drawn) | . | 1.0% | -5% | -5.1% | -21% | . | 1.2

Next section (two carried over from the part before).
SMILES | Menin-MLL FL inh | PINK1 expr mod | gsp ag | ClpP mod | gsp antag | Sfp PPTase inh | D2 agonist
Cc1cc(C)nc(SCc2ccc(C(=O)N/N=C/c3ccncc3)cc2)n1 | 2.1 | -1.3% | 31% | . | -1% | 12% | 3.2
COc1ccccc1C(=O)NCC(c1cccs1)N1CCc2ccccc21 (stereo not drawn) | . | 1.0% | -5% | -5.1% | -21% | . | 1.2
c1ccc(CNCCCNCCCCNCCCNCc2ccccc2)cc1 | . | -2.0% | 4% | -0.5% | 15% | . | 0.1
COc1ccccc1Cc1c(C2CCCCC2)nc2ccc(Cl)cn12 | . | ? | . | ? | . | . | -5.8
O=C(Nc1ccon1)c1ccc(S(=O)(=O)N2CCOCC2)cc1 | 6.4 | 2.6% | 29% | -2.2% | 8% | 11% | -0.9
Cc1ccc(C(=O)O)cc1NC(=O)C1CCN(S(=O)(=O)c2ccc3c(c2)OCCO3)CC1 | . | -0.5% | 25% | . | 3% | . | -3.3
CCOC(=O)C1=C(C)NC(=O)NC1c1ccc(N(CC)CC)cc1 (stereo not drawn) | 5.6 | 0.2% | -4% | -2.2% | -5% | 7% | 0.8
Cc1nc2nc3c(cn2n1)C(=O)CCC3 | 1.3 | 2.2% | -20% | -3.3% | 0% | -7% | -1.3
COc1cccc2cc(C(C)N(CCCN3CCOCC3)C(=S)Nc3c(C)cccc3C)oc12 (stereo not drawn) | 2.5 | -0.2% | ? | . | 11% | 16% | -3.8
C=CCNc1sc(C(=O)c2ccccc2)c(N)c1-c1nc2ccccc2s1 | -0.3 | 1.9% | -15% | 2.8% | -12% | 20µM* | -4.6
O=C(Nc1cc(Cl)ccc1N1CCOCC1)c1ccc(N2CCCCC2)c([N+](=O)[O-])c1 | . | 0.2% | -9%[15.4 µM] | . | -1% | . | 2.4
CCSc1cc(C)nc2c(-c3ccccc3)c(C)nn12 | 1.9 | -4.7%[38.3 µM] | 9% | 3.5% | -3% | 13% | 4.0
O=C(NCc1cccs1)Nc1ccc2c(c1)OCO2 | 2.2 | -2.6% | -2% | -2.5% | -10% | 5% | -2.2
CCOC(=O)CC(=O)CSc1nc2c(sc(=S)n2-c2ccccc2)c(=O)[nH]1 | 16 | -3.1%[38.3 µM] | -29% | 0.5% | ? | 10% | 0.0
CCCN(CC1CC1)C(=O)Nc1ccccc1C | -0.9 | 3.8% | ? | 0.6% | 3% | 10% | 2.0
O=C(N/N=C/c1cccc([N+](=O)[O-])c1)C1CC(=O)N(c2ccc(Cl)cc2)C1 (stereo not drawn) | 2.4 | 3.6% | 29% | -1.1% | -7% | 3% | 0.0
Cc1nn(C(C)C(=O)Nc2ccc3c(c2)OCO3)c(C)c1[N+](=O)[O-] (stereo not drawn) | 1.3 | 0.3% | -23% | -0.8% | 8% | 7% | -1.7
CC(NC(=O)C12CC3CC(CC(C3)C1)C2)C(=O)NN=Cc1ccc([N+](=O)[O-])o1 (stereo not drawn) | . | ? | 23%[15.4 µM] | 0.0% | -11% | . | 3.5
CCCOC(=O)/C(C(N)=NCc1ccccc1)=C(\O)OCCC | 3.1 | 21%[38.3 µM] | 3% | -3.6% | ? | 15% | -0.3
CCn1c(=O)cc(OCC(=O)NC(C)c2ccc3c(c2)OCCO3)c2ccccc21 (stereo not drawn) | -3.0 | -1.2% | 14% | -6.3% | 1% | 10% | -2.7

Compound activity as filed in PubChem.

Compounds as they come. About 5.1% of those tested had a hit in this group.
